# nsP2pro primary – inhibitors of chikungunya virus nsP2 protease; FRET peptide cleavage, nsP2pro, fluorescence 1 h; Potency, µM (highest dose often 24.9 µM), for the others: top-dose activity change, negative = inhibition, actives largely listed as inhibitors; hit rate 1.1% among 31,000; active means well fitted inhibition curve with a large enough effect; inconclusive means small, poorly fitted or top-dose-only effect; inactive means no such curve, though single readings can be large or run the other way; note: nearly all actives have a fitted effect of over 60% in size; a reference inhibitor and vehicle were the controls
# Numbers without * were called inactive; i = inactive; ? = inconclusive; & = joins results of further samples; [ ] = another dose, or the depositor's remark. % is set by controls: 0 for no effect and ±100 for the full control effect; potency is the fitted concentration of half-maximal effect. A portion of the library, so the mix of outcomes need not match the whole.
SMILES,nsP2pro primary
CCN1c2cc(C(=O)NCc3cccc(OC)c3)ccc2C(=O)N2CCCCCC21 (configuration not stated),-26%
CC(C)(C)OC(=O)N1CCC(c2c(C(=O)NCc3cccs3)cnn2-c2ccc(F)cc2F)CC1,4%
CCCn1cc(C(=O)N2C[C@@H](N(C)C)[C@H](c3ccc(C)cc3)C2)c(C)n1,i
Cc1ccc(OCCn2c(CCNC(=O)N3CCCCC3)nc3ccccc32)cc1,i
N#Cc1ccccc1Cn1c(=O)n(-c2cccc(C(F)(F)F)c2)c(=O)c2sccc21,-5%
Cc1cccc(-c2noc([C@@H]3Cc4nc[nH]c4CN3C(=O)c3ccc(-c4ccccc4)cc3)n2)c1,i
C[C@H]1CN(C[C@H](Cc2ccccc2)C(=O)NCC(=O)O)CC[C@@]1(C)c1cccc(O)c1,-2%&-12%
CN(C)CCCNC(=O)c1ccc(-c2cnc3c(O)cccc3c2)cc1,i
C[C@H](N)C(=O)Nc1cccc(-c2nn3c(=O)cc(N4CCNCC4)nc3s2)c1,i
CC(C)c1ccc(NC(=O)[C@H]2O[C@@H]3OC(C)(C)O[C@@H]3[C@H]3OC(C)(C)O[C@H]32)cc1,-25%
Cc1ccc(CN2C(=O)c3ccccc3Sc3ccc(C(=O)N4CCOCC4)cc32)cc1,-21%
COc1ccc(CNC(=O)C(CCSC)NS(=O)(=O)c2ccc3c(c2)oc(=O)n3C)cc1 (configuration not stated),-21%
Cc1ccnc(NC(=S)Nc2cccc(C(F)(F)F)c2)c1,2%
Cc1cc(C)c(/C=C/c2onc(C)c2S(=O)(=O)N2CCC(C(=O)N(C)Cc3ccccc3)CC2)c(C)c1,-12%
Cc1ccc(C(=O)N2CCC(N3C(=O)CCC3C(=O)NCc3cccnc3)CC2)cc1F (configuration not stated),0%
Cn1nnnc1Sc1ncnc2scc(I)c12,2.2µM*
C=C(C)[C@@H]1CCC2=CC(=O)C[C@@H](C)[C@]2(C)C1,15%
COCC(=O)Nc1cc(Sc2ccccc2)ccc1N=C(NC(=O)OC)NC(=O)OC,7%
CC(C)(Cc1ccccc1)NCC(O)c1ccc(O)c(NS(C)(=O)=O)c1 (configuration not stated),-26%
COc1cc(OC)cc(N(CCNC(C)C)c2ccc3ncc(-c4cnn(C)c4)nc3c2)c1,-19%
CCCCN(C)CCNC(=O)C1CCCN(S(=O)(=O)c2cccc3nsnc23)C1 (configuration not stated),-8%
CCN(CC)C(=O)CC[C@@H]1CNC(=O)[C@@H]2C[C@H](NC(=O)Nc3ccsc3)CN12,-11%[39.2 µM]
O=C(O)C[C@H](O)C[C@H](O)/C=C/c1c(C2CC2)nc2ccccc2c1-c1ccc(F)cc1,?
Cc1noc(C)c1-c1nccc2c(=O)cc(-c3ccccn3)oc12,-4%[39.2 µM]
Cc1cc2ncc(C(=O)NCC(C)(C)NCC(=O)N3CCC[C@H]3C#N)cn2n1,-16%
CS(=O)(=O)Cc1ccc(-c2cccc(OCc3ccccc3F)c2)nc1,i
COc1ccc(OC)c(CNC(=O)c2cc3cc4ccc(OC)cc4nc3o2)c1,-23%
COc1ccc(Nc2cc(C(=O)NC3CCC(C)CC3)c3ccccc3n2)cc1OC (configuration not stated),-8%
C=CC(=O)c1ccc2ccccc2c1,9.9µM*
Cc1cccc(C)c1SC1=NS(=O)(=O)c2ccccc21,5%&-3%
O=C(OCC#CCSc1nnc(-c2cccc3ccccc23)o1)c1ccsc1,-10%
COc1cccc(NC(=O)N(Cc2c[nH]c3ccccc23)C2CCCCC2)c1,-8%
CCc1ccc(-n2nc3cc(C)c(NC(=O)c4cccc5ccccc45)cc3n2)cc1,-22%
CCCC1(CO)CCCN(CC(=O)NC(C)(C)CC)C1 (configuration not stated),-5%
COC(=O)[C@]1(C)CCC[C@@]2(C)C(=O)CC[C@H]3C(=O)C=C(CC[C@@H]21)C3O (some centres not stated),?
CC(=O)c1cc(-c2ccccc2)n(CCC(=O)NCCc2ccccc2)c1C,-9%

# 17 of the compounds above, with bars between the fields:
compound | nsP2pro primary
C=C(C)[C@@H]1CCC2=CC(=O)C[C@@H](C)[C@]2(C)C1 | 15%
COCC(=O)Nc1cc(Sc2ccccc2)ccc1N=C(NC(=O)OC)NC(=O)OC | 7%
CC(C)(Cc1ccccc1)NCC(O)c1ccc(O)c(NS(C)(=O)=O)c1 (configuration not stated) | -26%
COc1cc(OC)cc(N(CCNC(C)C)c2ccc3ncc(-c4cnn(C)c4)nc3c2)c1 | -19%
CCCCN(C)CCNC(=O)C1CCCN(S(=O)(=O)c2cccc3nsnc23)C1 (configuration not stated) | -8%
CCN(CC)C(=O)CC[C@@H]1CNC(=O)[C@@H]2C[C@H](NC(=O)Nc3ccsc3)CN12 | -11%[39.2 µM]
O=C(O)C[C@H](O)C[C@H](O)/C=C/c1c(C2CC2)nc2ccccc2c1-c1ccc(F)cc1 | ?
Cc1noc(C)c1-c1nccc2c(=O)cc(-c3ccccn3)oc12 | -4%[39.2 µM]
Cc1cc2ncc(C(=O)NCC(C)(C)NCC(=O)N3CCC[C@H]3C#N)cn2n1 | -16%
CS(=O)(=O)Cc1ccc(-c2cccc(OCc3ccccc3F)c2)nc1 | i
COc1ccc(OC)c(CNC(=O)c2cc3cc4ccc(OC)cc4nc3o2)c1 | -23%
COc1ccc(Nc2cc(C(=O)NC3CCC(C)CC3)c3ccccc3n2)cc1OC (configuration not stated) | -8%
C=CC(=O)c1ccc2ccccc2c1 | 9.9µM*
Cc1cccc(C)c1SC1=NS(=O)(=O)c2ccccc21 | 5%&-3%
O=C(OCC#CCSc1nnc(-c2cccc3ccccc23)o1)c1ccsc1 | -10%
COc1cccc(NC(=O)N(Cc2c[nH]c3ccccc23)C2CCCCC2)c1 | -8%
CCc1ccc(-n2nc3cc(C)c(NC(=O)c4cccc5ccccc45)cc3n2)cc1 | -22%

# The list continues.
SMILES,nsP2pro primary
C[N+]1(C)CCN(CC(O)(c2ccccc2)C2CCCCC2)CC1 (configuration not stated),-4%
CN1C(=O)CCc2cc(S(=O)(=O)Nc3ccc(Cl)c(Cl)c3)ccc21,2%
Cc1nc([C@@H]2CN(C(=O)CCc3c[nH]c4ccccc34)C[C@H]2C(N)=O)n[nH]1,-3%
Cc1ncc(CO)c(CN)c1O,-21%
O=C1CN2Cc3c(ccc(Cl)c3Cl)N=C2N1,-6%
CC(C)CCNC(=O)c1ccc2c(c1)nc(Nc1n[nH]c3ccc(-c4ccccc4OC(F)(F)F)cc13)n2C1CCC(O)CC1 (configuration not stated),187%[activator]
Oc1ccc(-c2ccccc2F)c2cccnc12,i
Cc1ccc(NS(=O)(=O)c2cc3c(cc2-c2cn[nH]c2)NC(=O)CO3)cc1C,i
CCCCCn1c(=O)[nH]c2cc(C(=O)Nc3ccc(OC)c(OC)c3)ccc2c1=O,-13%
COc1cccc(-c2ccc(CN3CCCC(N[S+](=O)([O-])c4c(C)noc4C)C3)cc2)c1 (configuration not stated),-1%
Cc1nn(C(=O)c2ccccc2)c(C)c1Sc1ccc(Cl)cc1,-20%
Cc1ccccc1C(=O)N(C)C1CCCc2ccccc21 (configuration not stated),1%[39.2 µM]
CC1CCN(S(=O)(=O)c2ccc3c(c2)N(CC(=O)NC(C)c2ccccc2)C(=O)CS3)CC1 (configuration not stated),-12%
O=C(c1nc2ccccc2[nH]1)N1CCNc2cnc(Nc3ccc(-n4ccnc4)cc3)nc2C1,i
CC(C)C[C@H](NC(=O)[C@H]1O[C@@H]1C(=O)O)C(=O)NCCCCN=C(N)N,?
c1cncc(C2=NOC3(CCN(C4COC4)CC3)C2)c1,2%[39.2 µM]
O=C(COCc1cc(-c2cccs2)on1)NCc1cccc(Cl)c1,-13%
O=P(O)(O)C(O)(Cc1cnc2ccccn12)P(=O)(O)O,3%[0.199 µM]
CCn1ncc(CN2C[C@@H](COC)[C@H](c3ccncc3)C2)c1C,-4%
O=c1cc2c(nn1Cc1cccc(Br)c1)CCCCC2,-5%
COc1ccccc1NC(=O)N1CC(C(=O)NCC2CC2)CC(c2ccccc2)C1 (configuration not stated),-2%
CCCCNCC(O)c1ccc(O)cc1 (configuration not stated),0%
C[C@](N)(Cc1ccc(O)c(O)c1)C(=O)O,?
CCC(=C(c1ccc(OCCN2CCCC2)cc1)c1ccc(OCCN2CCCC2)cc1)c1ccccc1,93%[activator]
Cc1c(P(=O)(c2ccccc2)c2ccccc2)c2ccccc2n1C,11µM*
Cc1cncc2cccc(S(=O)(=O)N3CCCNC[C@@H]3C)c12,?
CCN(CC)c1cc(CCC(=O)NCc2cc(F)ccc2F)ccn1,i
O=C(O)C1CCN(c2ncc(-c3ccc4c(c3)OCCCO4)s2)CC1,i
COc1ccc(CN2C[C@@H](CO)[C@H](c3ccccn3)C2)cc1C,i
COc1ccc(-n2cnc3cc(C(=O)N4CCCCC4)ccc32)cc1,-52%
COc1ccc(C2c3c(N)nc(Cc4ccccc4)nc3Oc3ccc4ccccc4c32)cc1OC (configuration not stated),-15%
Cn1ccc2c(OCC(=O)NCc3ccccc3Cl)cccc2c1=O,-8%
CC1=CCC2C(C)(C)CCCC2(C)C1CC12OC1C(O)C(CO)=CC2O (configuration not stated),?
Cc1cccc(CSc2ncc(Cl)c(C(=O)Nc3sc4c(c3C#N)CCCC4)n2)c1,-27%
O=C(N[C@@H]1CN(Cc2ccccc2)C[C@H]1CO)c1cccnc1,-2%
CCCC(=O)Nc1ccc(OCC(O)CNC(C)C)c(C(C)=O)c1 (configuration not stated),5%
COC1CCC12CCN(C(=O)c1cnc(C)cn1)CC2 (configuration not stated),-1%
CCN(Cc1cccs1)c1ncnc2ccc(-c3ccc4c(c3)OCO4)cc12,?
NS(=O)(=O)c1ccc(NC(=O)Nc2ccc(F)cc2)cc1,7%
CCCC[C@H](NC(C)=O)C(=O)N[C@H]1CC(=O)NCCCC[C@@H](C(=O)O)NC(=O)[C@H](Cc2c[nH]c3ccccc23)NC(=O)[C@H](CCCN=C(N)N)NC(=O)[C@@H](Cc2ccccc2)NC(=O)[C@H](Cc2cnc[nH]2)NC1=O,0%
O=C(/C=C/c1ccc(O)cc1)OC[C@H]1O[C@H](O[C@@]2(CO)O[C@@H](CO)[C@H](O)[C@H]2O)[C@H](O)[C@@H](O)[C@@H]1O,?
COC(=O)[C@@H]1Cc2ncn(Cc3ccccc3)c2CN1C(=O)c1cccs1,5%[39.2 µM]
Cc1ccc(-c2ccc(=O)n(CC(=O)NCc3ncc[nH]3)n2)cc1,2%
COC(=O)CC(O)C1OC(c2ccccc2)C(O)C1O (configuration not stated),39%[activator]
CNC(=O)c1cc[nH]c1C1CCCN(C(=O)Cc2ccsc2)C1 (configuration not stated),-22%
CN1C[C@@H]2C[C@H]1CN2c1cc2c(cc1F)c(=O)c(C(=O)O)cn2C1CC1,2%[10 µM]
O=S(=O)(c1cccc2c(Cl)cccc12)N1CCCNCC1,3%
CC12CCC(O)CC1=CCC1C2CCC2(C)C(n3cnc4ccccc43)=CCC12 (configuration not stated),-7%
O=S(=O)(c1ccccc1F)N1CCOc2c(N3CCNCC3)cccc21,5%
Cc1ccc(S(=O)(=O)Nc2cnccc2C(=O)Nc2ccc(C#N)cc2)cc1,i
CC(=O)C1=C(O)C=C2Oc3c(C(C)=O)c(O)c(C)c(O)c3[C@]2(C)C1=O,15%&-5%
Cc1onc(-c2ccc(F)cc2)c1COc1ccc(C(=O)N2CCS(=O)(=O)CC2)cn1,-11%
CC(=O)OC[C@@]12[C@H](O)C[C@@H](C)[C@]3(C[C@@H](c4ccoc4)OC3=O)[C@H]1C[C@H](O)C[C@]21CO1,?
CN(Cc1ccccc1)C(=O)CSc1nc2ccsc2c(=O)n1-c1ccc(F)cc1,-9%
CCOC(=O)c1c(C)[nH]c(C)c1S(=O)(=O)N1CCC(C(=O)N2CCN(c3ccccc3)CC2)CC1,?
Cc1ccc(-n2ncc(C(=O)NC3CCN(Cc4ccccc4)CC3)c2C2CCN(C(=O)OC(C)(C)C)CC2)cc1C,24%
CCc1c(-c2ccccc2)c(-c2ccccc2)nn1-c1ccccc1-c1cccc(OCC(=O)O)c1,?
CN1C[C@H](NC(=O)c2cnccn2)CCC[C@@H](C(=O)NCc2cc(F)cc(F)c2)CC1=O,23%
CO[C@@]12[C@H](COC(N)=O)C3=C(C(=O)C(C)=C(N)C3=O)N1C[C@@H]1N[C@@H]12,-11%
O=C(c1ccc(C(F)(F)F)cc1)N1CCC2(CC1)CNc1ccccc1[S+](=O)([O-])N2,-5%

# (more compounds)
SMILES,nsP2pro primary
COC(=O)[C@@H]1Cc2ncn(C(C)C)c2CN1S(=O)(=O)c1ccc(F)cc1,?
CCn1cnc2c(=O)oc3ccc(S(=O)(=O)N4CCN(c5cc(C)ccc5C)CC4)cc3c21,-13%
CC/C=C/CC1=C(CCCCCCCC(=O)O)CCC1=O,-16%
CC(=O)c1ccc(NS(=O)(=O)c2ccc(-c3cnc(C4CC4)o3)cc2)cc1,-6%
Cc1cccc(CN2CCN3C(=O)N(Cc4ccc(F)cc4)C[C@H]3C2)n1,i
FC(F)(F)c1ccccc1-c1cc(C(F)(F)F)c2nc(C3=NOC4(CCCCC4)C3)[nH]c2c1,-8%
CC12CCC(C(OC3OC(COC4OCC(O)(CO)C4O)C(O)C(O)C3O)C1)C(C)(C)O2 (configuration not stated),?
Cc1ccc2c(c1)C=Cc1cc(C)ccc1C2c1cn(Cc2ccc(C(=O)Nc3nn[nH]n3)o2)c(=O)[nH]c1=S,409%[activator]
CS(=O)(=O)Nc1ccc(-c2nc(NCc3ccc(-c4ccnc(C(F)(F)F)c4)cc3)c3ccccc3n2)cc1,-20%
O=C(CCc1ccccc1)NCC(=O)N1CCN(c2ccccn2)CC1,-1%
COc1ccc(CNC(=O)[C@@H]2CCC[C@@H](NC(=O)C3CC3)CN(C)C(=O)C2)cc1,i
O=C(c1nc(-c2cc(Cl)cc(Cl)c2)c2ccccn12)N1CCCC1,-10%
CCc1noc([C@@H]2CC(F)(F)CN2C(=O)CCn2cc(C)cn2)n1,0%
O=C(C1CCC(Cn2c(=O)c3sccc3n(Cc3cccc(F)c3)c2=O)CC1)N1CCCCC1 (configuration not stated),-13%
CCOC(=O)Nc1sc2c(c1C(N)=O)CCCC2,?
